Six1-Eya2 inh: blocks human Six1 binding to Eya2; actives 0.56% (n = 360,000); AlphaScreen GST-Six1/His-Eya2 binding, biochemical; active compounds read low; control for the full effect not named in the record; Q15475+O00167; activity change, % (test concentration not listed); in the data active = activity change below about -65%; inconclusive = about -30% to -65%; inactive = above about -30%; further: on the % scale 0 is the no-effect control and ±100 the full control effect
Target sequence (O00167 whole entry, looked up): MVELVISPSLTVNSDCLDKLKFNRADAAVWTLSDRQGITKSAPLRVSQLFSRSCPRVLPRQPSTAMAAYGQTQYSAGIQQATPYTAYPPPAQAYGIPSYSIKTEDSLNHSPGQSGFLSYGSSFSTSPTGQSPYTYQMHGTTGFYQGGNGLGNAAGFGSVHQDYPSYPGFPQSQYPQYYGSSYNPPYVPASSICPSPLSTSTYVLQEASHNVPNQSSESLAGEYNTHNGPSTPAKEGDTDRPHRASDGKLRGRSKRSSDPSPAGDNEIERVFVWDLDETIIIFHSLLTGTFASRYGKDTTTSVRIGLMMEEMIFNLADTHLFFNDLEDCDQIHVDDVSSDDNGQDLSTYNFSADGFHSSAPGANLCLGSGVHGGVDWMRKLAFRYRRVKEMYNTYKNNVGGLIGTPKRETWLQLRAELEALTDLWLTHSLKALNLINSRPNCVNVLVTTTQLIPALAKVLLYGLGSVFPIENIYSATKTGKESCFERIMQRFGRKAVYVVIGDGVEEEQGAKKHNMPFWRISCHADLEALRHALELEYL
Target sequence (Q15475 whole entry, looked up): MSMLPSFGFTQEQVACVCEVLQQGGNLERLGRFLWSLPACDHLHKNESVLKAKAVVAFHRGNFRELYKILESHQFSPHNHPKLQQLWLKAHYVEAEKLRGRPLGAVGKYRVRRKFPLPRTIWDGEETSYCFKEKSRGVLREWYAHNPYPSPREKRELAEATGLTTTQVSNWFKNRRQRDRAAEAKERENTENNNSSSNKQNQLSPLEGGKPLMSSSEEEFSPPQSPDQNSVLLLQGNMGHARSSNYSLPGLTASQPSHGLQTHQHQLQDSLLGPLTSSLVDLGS
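GST-Six1 + His-Eya2 (5X stock: 250/500 nM); Tris pH 8.0, 300 mM NaCl, 0.05% BSA, 0.02% Tween 20; GSH donor/Ni acceptor beads; 1 h 37 °C dark; AlphaScreen readout.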
CtBP-E1A blk: CtBP/E1A binding inhibition; AlphaScreen GST-E1A/His-CtBP binding, 1536-well; active compounds read low; control for the full effect not named in the record; activity change, % (concentration not given with the values); actives 0.49% (n = 340,000); AID 651724; in the data active means activity change below about -65%; inconclusive means about -30% to -65%; inactive means above about -30%; further: on the % scale 0 is the no-effect control and ±100 the full control effect
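In 5 uL wells, 23 nL compound meets equimolar GST-E1A and His-CtBP (5X stock 125 nM each) for 2 h, 37 °C. Beads (5X, 50 ug/mL) then 1 h, 37 °C, dark.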
gsp ag: agonists of gsp mutant (McCune-Albright syndrome) | Potency, µM (doses to about 76.9 µM), for the others: top-dose activation (cAMP increase), actives largely listed as activators | AID 624287 | gsp mutant cells, cAMP HTRF, 30 min; control for the full effect not named in the record | actives 0.13% (n = 340,000); active = well fitted activation curve with a large enough effect; inconclusive = small, poorly fitted or top-dose-only effect, or another doubt; inactive = no such curve, though single readings can be large or run the other way; cell line not stated here;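 further: phosphodiesterase inhibitor Ro 20-1724 added with compounds to block cAMP breakdown; potency means the concentration at half of the fitted maximal effect; nearly all actives have a fitted effect of over 60% in size; about a fifth of the inactives were tested at one dose only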
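Cells stably selected in G418 were plated at 2000/well, grown 16-24 hr, then given compounds in DMSO with the PDE inhibitor […] (300 uM solution added) for 30 min at 37C; cAMP was read by HTRF.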
gsp antagonist: gsp mutant antagonism | actives 0.4% (n = 340,000) | AID 624288 | Potency, µM (highest dose often 76.9 µM), inactives show at the top dose activity change, negative = inhibition, hits mostly inhibitors | gsp-mutant cells, cAMP HTRF, 30 min; control for the full effect not named in the record; active = falling curve of any shape with a large fitted effect; inconclusive = falling curve, mostly with a smaller effect; inactive = flat or rising curve; cell line not stated here;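 further: intracellular cAMP measured with PDE inhibitor Ro 20-1724 present during compound exposure; potency means the concentration at half of the fitted maximal effect; on the % scale 0 is the no-effect control and ±100 the full control effect; nearly all actives have a fitted effect of over 65% in size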
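G418-selected cells were plated in DMEM/10% FBS for 16-24 h at 37C, then treated with compounds plus the PDE inhibitor […] (300 uM solution added) for 30 min at 37C. Intracellular cAMP was measured by HTRF after 30 min lysis at room temperature.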
D2 ag: activates the human D2 dopamine receptor. P14416. DiscoveRx PathHunter D2 beta-arrestin, luminescence, 90 min; 100% = 57 uM dopamine signal. activation, % (concentration not given with the values). actives 0.084% (n = 360,000); in the data active = activation above about 40%; inconclusive = about 15% to 40%; inactive = below about 15%; further: compound concentration not given in the record; the text of the record calls up to 30% inactive
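Agonist mode: compounds alone added to overnight-plated D2 PathHunter cells for 90 min at 37 C, with 57 uM final dopamine (EC100) defining full response. Beta-arrestin recruitment detected by chemiluminescent reagent, read after 1 h at ambient temperature.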
D2 PAM: positive allosteric modulators of human D2 dopamine receptor. P14416. DiscoveRx D2 beta-arrestin cells, luminescence, 90 min; 100% = 57 uM dopamine signal. actives 0.23% (n = 360,000). potentiation, % (concentration not given with the values); active = potentiation of 50% or more; inconclusive = 30% to 50%; inactive = 30% or less;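 further: compound concentration not given in the record; tested on top of an EC20 dose of dopamine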
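PathHunter beta-arrestin assay in DiscoveRx D2 cells. Compounds were added with an EC20 of dopamine (50 nM final) for 90 min at 37 deg C. Luminescence was read 1 h after detection reagent, with 57 uM dopamine as the EC100 control.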
* = called active by the depositor; ? = inconclusive; · = no result given; [ ] = remark or other dose.

SMILES | Six1-Eya2 inh | CtBP-E1A blk | gsp ag | gsp antagonist | D2 ag | D2 PAM
Cn1ccnc1P(=S)(c1nccn1C)c1nccn1C | -23 | 2 | -14% | 6% | -3.9 | -3
CCOc1cc2c(cc1OCC)-n1cccc1C(c1ccc(C(C)C)cc1)NC2 (centres undefined) | -25 | ? | -16% | -7% | 6.3 | -18
Cc1ccccc1-c1nc2ccccc2c(=O)n1C | -5 | 4 | -2%[15.4 µM] | 9% | -2.3 | -3
COc1ccc(-n2c(O)c(/C(C)=N/Nc3ccccc3)c(=O)[nH]c2=O)cc1 | 0 | -10 | 11%[15.4 µM] | -9% | 7.0 | 4
COc1ccccc1N1CCN(S(=O)(=O)CCNC(=O)C2CC(=O)N(c3ccccc3)C2)CC1 (centres undefined) | -2 | 1 | ? | -4% | -1.1 | -3
c1cc2c(cc1N1CCCCC1)C1CC2CCN1 (centres undefined) | -8 | ? | · | -4% | -1.7 | -2
O=C(CN1CCN(C(=O)COc2cccc(F)c2)CC1)Nc1ccc(Cl)c(C(F)(F)F)c1 | 0 | 1 | -7% | -10% | 1.4 | -2
O=S(=O)(c1ccc(Cl)cc1Cl)N1CCCC1c1cccnc1 (centres undefined) | 0 | -4 | -4%[15.4 µM] | -4% | 1.8 | -11
C=CCn1c(O)c(C(CC)=NCCCO)c(=O)[nH]c1=O | -1 | 4 | -25% | 7% | -3.4 | 4
CCN1C(=O)/C(=C/c2ccc3c(c2)CCN3CCCCl)C(=O)NC1=S | -20 | 0 | -11% | 0% | -4.4 | 11
CN(C)C(CNC(=O)Cc1c(Cl)cccc1Cl)c1ccccc1 (centres undefined) | 0 | -11 | -34%[inhibitor] | 17% | -2.4 | -9
O=C(CN1CCCCC1)c1ccc2c(c1)OCO2 | -5 | -1 | 5% | -9% | -0.6 | -6
COC(=O)C1=C(c2cc3ccccc3o2)C[C@@H]2CC[C@H]1N2C(=O)NCCNC(C)=O | -3 | 4 | -11% | 4% | -3.5 | -5
COC(=O)C1=C(c2ccc(Cl)c(C(F)(F)F)c2)C[C@@H]2CC[C@H]1N2C(=O)NC(C)C | 3 | 5 | -12% | -2% | -3.4 | -15
COC(=O)C1=C(c2c(C)noc2C)C[C@@H]2CC[C@H]1N2C(=O)NCCO | 2 | · | -4% | 11% | -1.3 | -5
CCN(CC)c1ccc(CN2CC=C(c3ccc(F)cc3)CC2)cc1 | ? | ? | -26% | -11% | -1.3 | -44
CC(C)N1C(=O)CCC1C(=O)N1CCC2(CC1)OCCO2 (centres undefined) | 2 | 0 | -32%[inhibitor] | 10% | 0.3 | 6
CC1=NN(c2ccccc2)C(=O)C1/C=C1/C(=O)NC(=O)N(c2cc(C)cc(C)c2)C1=O (centres undefined) | 9 | 15 | -35%[inhibitor] | -15% | -4.5 | -11
CCOc1cccc(C2NCc3ccccc3-n3cccc32)c1O (centres undefined) | -12 | -4 | ? | 1% | -0.9 | -32
Cn1cc(C(=O)N2CCCCC2)c2ccccc21 | 0 | -11 | 14% | 9% | -3.3 | -3
C[C@@H]1CN([C@H](C)CO)C(=O)CCCn2nncc2CO[C@@H]1CN(C)C(=O)Oc1cccc2ccccc12 | -7 | 7 | -78%[inhibitor] | · | -3.4 | 3
CC1N=C(c2ccccc2)c2cc(Br)ccc2NC1=O (centres undefined) | -5 | 0 | -17%[15.4 µM] | 6% | -0.3 | -12
Nc1ncc(P(=S)(N2CCOCC2)N2CCOCC2)s1 | -7 | 6 | 24% | 10% | -3.4 | -18
Cn1c(O)c(C=NCCN2CCNCC2)c(=O)n(C)c1=O | 1 | 1 | -24% | 18% | -0.1 | -4
Cc1cccc(C2=NCC(=O)N(CC(=O)NCc3ccco3)c3sc4c(c32)CCCC4)c1 | -10 | -13 | -46%[inhibitor] | ? | -1.3 | -1
O=C(CCC(=O)N1CCC2(CC1)OCCO2)Nc1nnc(C2CCCCC2)s1 | 6 | 4 | -23% | -2% | -6.1 | -8
CCc1ccc(CN2CCN(Cc3cc(Br)ccc3O)CC2)cc1 | -3 | -3 | -7% | 2% | 1.1 | -16
O=c1c2ccccc2nc(/C=C/c2ccc(O)cc2)n1-c1ccc(O)cc1 | 20 | · | 22% | -12% | -1.9 | 9
CCN(CC)P(=O)(Oc1ccccc1)Oc1ccccc1 | 0 | · | ? | -4% | -6.0 | -23
CN1C(=O)C(=Cc2ccccc2Oc2ccc(Cl)c(F)c2)C(=O)N(C)C1=O | -5 | 1 | 7% | 0% | -1.9 | -8
C=CCn1c(O)c(C=Nc2c(C)n(C)n(-c3ccccc3)c2=O)c(=O)[nH]c1=O | 2 | · | -24% | 7% | -5.6 | 1
CCOc1ccc(N2C(=O)/C(=C\c3cccs3)C(=O)NC2=S)cc1 | 1 | 0 | -4%[15.4 µM] | -11% | -6.4 | -26
CCOc1cc2c(cc1OCC)-n1cccc1C(c1ccccc1OC)NC2 (centres undefined) | -19 | -26 | 3% | 9% | 1.3 | -15
S=C(NCCc1ccccc1)NCCc1cnc[nH]1 | -11 | · | -1% | 7% | 4.9 | -5
O=C(C1CCC(=O)N1Cc1ccc(F)cc1)N1CCC2(CC1)OCCO2 (centres undefined) | 4 | 3 | -95%[inhibitor] | 10% | -1.9 | 11
CN(C)CC1CSCCC1(O)c1ccc(C(F)(F)F)cc1 (centres undefined) | 9 | 2 | ? | 10% | -5.4 | -17
CC12CCC(O)CC1CCC1C2CCC2(C)C(C3=CC(=O)OC3)CCC12O (centres undefined) | 1 | 8 | -13% | 9% | 0.0 | -8
CCN1CCN(S(=O)(=O)c2ccc(Cl)nc2)CC1 | -20 | -5 | 25% | 12% | 10 | -15
O=c1[nH]c(=O)n(C2CCCCCC2)c(O)c1C=NCC1CCCO1 (centres undefined) | 21 | 0 | 19% | -22% | -3.2 | -5
CCCC(C)(COC(N)=O)COC(=O)NC(C)C (centres undefined) | 3 | -3 | · | 5% | -3.9 | -6
COC(=O)C1=C(c2ccc3ccccc3c2)C[C@@H]2CC[C@H]1N2C(=O)NCCCOC(C)C | 5 | 1 | -1% | -4% | -1.4 | -14
COc1ccccc1OP(=O)(Nc1cccnc1)Oc1ccccc1OC | 4 | 2 | -51%[inhibitor] | 7% | 3.6 | 8
CC(=O)N1CC(=O)Nc2ccc(Cl)cc2C1c1ccccc1 (centres undefined) | 11 | -2 | ? | 3% | 0.0 | -3
CCCCn1c(C)c(C(=O)O)c2cc(OC)c3ccccc3c21 | -14 | -13 | -30% | -7% | 4.2 | 1
O=C(Cn1c(=O)c(C(F)(F)F)nc2ccccc21)N1CCC2(CC1)OCCO2 | 5 | 9 | 2% | -6% | -2.0 | 1
O=C1NC(=O)N(c2ccc3c(c2)OCO3)C(=O)/C1=C\c1ccc(N2CCCCC2)o1 | -2 | -1 | -21% | 9% | -3.0 | -8
CN(C)C(=O)Oc1c(Cl)cc(Cl)c2cccnc12 | 10 | -5 | 8%[15.4 µM] | 11% | -2.7 | -7
CCCCn1c(O)c(/C(C)=N/NC(=O)Nc2ccccc2)c(=O)[nH]c1=O | 0 | 4 | -34%[inhibitor] | 11% | -3.9 | -3
COc1ccc2[nH]c3c(c2c1)CCNC3C (centres undefined) | -8 | 2 | -2% | 9% | 3.1 | -9
COC(=O)C1=C(c2cccc(Cl)c2)C[C@@H]2CC[C@H]1N2C(=O)N1CCCC1 | 18 | 1 | -13% | -8% | -2.1 | -9
c1ccc2c(NC3=NCCS3)cccc2c1 | -4 | -2 | -1% | 5% | 5.9 | -3
S=C(NCCc1ccccc1)N1Cc2cc(-c3ccccc3)ccc2-n2nncc2C1 | 2 | 5 | · | · | ? | 3
Cc1ccccc1N1CCN(Cc2ccc3c(c2)OCO3)CC1 | -17 | 6 | -10%[15.4 µM] | 9% | · | -31
COC(=O)C1=C(c2c(C)noc2C)C[C@@H]2CC[C@H]1N2C(=O)N1CCc2cc(OC)c(OC)cc2C1 | -3 | · | 8% | -13% | 0.3 | 1
CCOC(=O)C1(Cc2ccc(Cl)cc2)CCN(C(C)CCn2cccn2)CC1 (centres undefined) | -2 | -1 | 13% | 13% | ? | 13
CCOc1ccc(CNCCc2ccc3c(c2)OCO3)cc1 | 0 | · | -49%[inhibitor] | 3% | -2.7 | -66
Cc1cc(/C=C2\C(=O)NC(=O)N(c3cccc(Br)c3)C2=O)c(C)n1C | 1 | 14 | -13% | -14% | -1.7 | -14
C[C@@H]1CN([C@@H](C)CO)C(=O)CCCn2cc(nn2)CO[C@H]1CN(C)C(=O)Oc1cccc2ccccc12 | 4 | 3 | ? | · | 3.5 | 4
CC(C)N1CCN(Cc2c[nH]c3ccccc23)CC1CCO (centres undefined) | 2 | -4 | -6% | 13% | -0.8 | -6
COc1ccccc1/C=N/N=C(/N)N[N+](=O)[O-] | 4 | -5 | -14% | 9% | -5.6 | -16

Only CtBP-E1A blk and D2 ag, for some of the entries so far:
molecule	CtBP-E1A blk	D2 ag
CC(C)N1CCN(Cc2c[nH]c3ccccc23)CC1CCO (centres undefined)	-4	-0.8
COC(=O)C1=C(c2c(C)noc2C)C[C@@H]2CC[C@H]1N2C(=O)N1CCc2cc(OC)c(OC)cc2C1	·	0.3
Cc1ccccc1N1CCN(Cc2ccc3c(c2)OCO3)CC1	6	·
S=C(NCCc1ccccc1)N1Cc2cc(-c3ccccc3)ccc2-n2nncc2C1	5	?
COc1ccc2[nH]c3c(c2c1)CCNC3C (centres undefined)	2	3.1
COc1ccccc1/C=N/N=C(/N)N[N+](=O)[O-]	-5	-5.6

(list continues)
SMILES | Six1-Eya2 inh | CtBP-E1A blk | gsp ag | gsp antagonist | D2 ag | D2 PAM
COc1ccc(OCC(=O)N2CCN(C3CCC(c4ccccc4)CC3)CC2)cc1 (centres undefined) | -5 | -12 | 19% | 0% | -5.0 | -14
O=C(Cn1ncc2ccccc21)N1CCC2(CC1)OCCO2 | 2 | 7 | 27% | -10% | 0.4 | 7
CC1CN(O)C2CCc3nonc3C12O (centres undefined) | 9 | 2 | -9% | 7% | 2.6 | 7
CC(=O)CCC(C)=O | -1 | -1 | · | 1% | 3.0 | -10
CC1CCC/C=C/C2CC(O)CC2C(O)/C=C/C(=O)O1 (centres undefined) | 5 | 12 | 6%[15.4 µM] | -3% | 2.6 | 2
CCCCn1c(=O)c(C(=O)NCc2ccncc2)c(O)c2ccccc21 | -1 | -2 | 24% | -12% | -1.8 | -14
CC/C(=N\NC(=O)Nc1ccccc1)c1c(O)n(Cc2ccccc2)c(=O)[nH]c1=O | 0 | 0 | 1%[15.4 µM] | 4% | -1.7 | -5
OC12Oc3ccccc3C=C1N1CCC2CC1 (centres undefined) | 0 | 11 | ? | 11% | -2.5 | 29

Entries above that contain two or more sulfur atoms (two):
SMILES | Six1-Eya2 inh | CtBP-E1A blk | gsp ag | gsp antagonist | D2 ag | D2 PAM
Nc1ncc(P(=S)(N2CCOCC2)N2CCOCC2)s1 | -7 | 6 | 24% | 10% | -3.4 | -18
CCOc1ccc(N2C(=O)/C(=C\c3cccs3)C(=O)NC2=S)cc1 | 1 | 0 | -4%[15.4 µM] | -11% | -6.4 | -26

Compound activity as filed in PubChem.

Some of the compounds tested; count on the stated rates, not on these rows.
